Compound activity from PubChem.
RanGTP-Imp inh – inhibitors of RanGTP-importin-beta interaction, primary screen, biochemical, FRET, CFP-Ran, YFP-importin-beta, homogeneous; actives 1.1% (n = 300,000); inhibition, % (no concentration beside the values); cell-free CFP-Ran/YFP-importin-beta FRET ratio; AID 2216, 2009; Ran GTPase (GTP-bound) - importin-beta complex;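 active = most replicates above 15%; inconclusive = exactly half above 15%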;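 note: 0% = DMSO wells and 100% = Ran loaded with GDP instead of GTP; wells of about 40 µL received 100 nL stock; the first replicate is given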
Calb FLC – C. albicans growth inhibition with fluconazole, primary screen, CaCi-2 strain, Alamar Blue fluorescence; growth inhibition, % (concentration not given with the values); actives 0.57% (n = 300,000); C. albicans CaCi-2 (fluconazole-resistant clinical isolate) + fluconazole, 48 h; AID 1979, 2009;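 active = most replicates above 75%; inconclusive = exactly half above 75%; inactive = most below 75%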;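 note: all wells also contain fluconazole at 8 µg/ml as a sub-toxic cotreatment; 0% = median of DMSO wells and 100% = median of geldanamycin control wells; wells of about 8 µL received 7.5 nL stock; the first replicate is given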
T cruzi inh – inhibitors of intracellular T. cruzi growth, primary screen, luminescence, NIH3T3 host cells. T. cruzi beta-gal in NIH3T3, 90 h. inhibition, % (no concentration beside the values). actives 1.4% (n = 300,000);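 active = mean inhibition across valid replicates above about 55%, limit read from the data; inconclusive = mean below that limit but half or more replicates reach it; inactive = mean below it, under half of replicates reach it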;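 note: signal also drops with host cell toxicity which is not excluded here; 0% = plate median of DMSO wells and 100% = zero luminescence signal; higher percent means less beta-gal luminescence so fewer parasites; stock transfer was 50 nL into about 50 µL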
Bfl-1 A1 inh – caspase 3/7 activation in MEF A1-2A-BIM cells, primary screen, A1 inhibitor project, cell-based, luminescence, HTS | Caspase-Glo 3/7 luminescence, 3 h; percent of clofoctol response, vehicle zero | caspase activation, % (concentration not given with the values) | actives 0.066% (n = 330,000) | AID 2462, 2010;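 active = over half of replicate activation scores above 10%, or exactly half above 10 with the replicate mean above 10; inconclusive = replicate mean below 10 yet half the replicates above 10; inactive = over half of replicates below 10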;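 note: wells of about 30 µL received 50 nL stock; many hits fall short of the cut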
Beta2AR agonist – beta2AR agonists driving receptor internalization, primary screen, cell-based, FAP fluorogen, flow cytometry; Beta-2 adrenergic receptor (Homo sapiens), P07550; Am2.2-beta2AR cells; reference of the scale not given here; response, % (concentration not given with the values); actives 0.43% (n = 340,000); AID 504454, 2011;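 active = response above a set limit, near 3 SD of response in nonfluorescent compounds, cut at about 42% in these data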;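 note: stock transfer was 100 nL into about 11 µL; a reference agonist was the positive control; negative values mostly stem from fluorescent compounds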
Target sequence (P07550 whole entry, looked up): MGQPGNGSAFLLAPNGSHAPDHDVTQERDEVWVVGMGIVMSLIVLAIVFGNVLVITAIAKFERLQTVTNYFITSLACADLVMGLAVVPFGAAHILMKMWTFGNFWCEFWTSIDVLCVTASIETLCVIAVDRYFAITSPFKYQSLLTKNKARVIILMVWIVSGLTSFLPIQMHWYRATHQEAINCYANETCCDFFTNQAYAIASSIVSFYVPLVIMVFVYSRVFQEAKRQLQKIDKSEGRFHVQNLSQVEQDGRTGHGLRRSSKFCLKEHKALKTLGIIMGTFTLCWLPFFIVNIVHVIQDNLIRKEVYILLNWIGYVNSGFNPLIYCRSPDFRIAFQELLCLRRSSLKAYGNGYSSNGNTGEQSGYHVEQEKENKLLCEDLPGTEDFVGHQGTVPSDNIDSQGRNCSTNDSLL
LANA-H2A inh – blockers of LANA interaction with H2A/H2B – biochemical, FP readout, HTS, primary screen. Protein LANA1 (Human herpesvirus 8 type P (isolate GK18)), Q9QR71. cell-free LANA-H2A/H2B peptide, fluorescence polarization. inhibition, % (concentration not given with the values). actives 0.6% (n = 320,000); in the data active = inhibition mostly above about 10%, no sharp cut-off; inactive = mostly below about 6.7%;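 note: stock transfer was 7.5 nL into about 10 µL; 0% = median of vehicle wells and 100% = median of positive control wells; one replicate is shown; the record names a cut of 25% in any replicate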
Beta cell apopt – inhibitors of cytokine-induced beta cell apoptosis, primary screen, luminescence; INS-1E cytokine-induced death, ATP luminescence, 48 h; percent of positive-control rescue, neutral wells zero; protection from apoptosis, % (test concentration not listed); actives 0.8% (n = 300,000);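 active = all replicates at 75% or more, or half of them and the mean; inconclusive = half reach 75% but not the mean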;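 note: 0% = cytokine-treated negative control wells and 100% = positive control rescue; higher means more ATP so stronger rescue from cytokine killing; wells of about 40 µL received 100 nL stock; the first replicate is given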
UCH37 inh – inhibitors of human UCH37 deubiquitinase, primary screen, biochemical, Ub-AMC cleavage, fluorescence; purified proteasome/UCH37; actives 0.33% (n = 330,000); inhibition, % (test concentration not listed); Ubiquitin carboxyl-terminal hydrolase isozyme L5 (Homo sapiens), Q9Y5K5;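 active = mean of two replicates above 20%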;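 note: 0% = compound-free wells with enzyme and 100% = wells lacking proteasome; stock transfer was 100 nL into about 20 µL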
Target sequence (Q9Y5K5 whole entry, looked up): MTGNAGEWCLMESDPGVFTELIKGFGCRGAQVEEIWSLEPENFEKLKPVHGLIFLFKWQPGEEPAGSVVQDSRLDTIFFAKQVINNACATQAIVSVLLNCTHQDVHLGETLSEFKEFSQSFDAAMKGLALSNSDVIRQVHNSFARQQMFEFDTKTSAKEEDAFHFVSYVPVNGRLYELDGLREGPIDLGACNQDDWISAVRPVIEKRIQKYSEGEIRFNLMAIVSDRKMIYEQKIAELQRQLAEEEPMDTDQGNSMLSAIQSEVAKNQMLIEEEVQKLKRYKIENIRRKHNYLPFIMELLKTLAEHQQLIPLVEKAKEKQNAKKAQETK
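Material: Human UCH37 enzyme supplied as purified proteasome complex | Schedule: 30 min preincubation with enzyme, 25 min cleavage at room temperature | Detection: AMC fluorescence 355/460 nm | Measure: % inhibition of Ub-AMC cleavage fluorescence | Controls: Wells without proteasome as full block, compound-free enzyme plus substrate as uninhibited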
* marks the source's active call; other numbers are inactive results; i = inactive; ? = inconclusive; . = no result given.

SMILES | RanGTP-Imp inh | Calb FLC | T cruzi inh | Bfl-1 A1 inh | Beta2AR agonist | LANA-H2A inh | Beta cell apopt | UCH37 inh
C=CCN(CC=C)S(=O)(=O)c1ccc2nc(NC(=O)C3CCCO3)sc2c1 (stereo not given) | -0.9 | 1 | 11 | 0.2 | -2 | 2.9 | 8 | 2.0
CCOC(=O)CC(=O)CSc1nc2ccc(C)cc2cc1C#N | . | . | . | -1.0 | -53 | 8.2 | 58 | -12
CC1=CC2=NC(=O)CC(C)(C(=O)N(CC(=O)NC(C)C)C3CCCC3)N2C=C1 (stereo not given) | -11 | -15 | -4 | 0.1 | . | 0.4 | -2 | -65
C=C[C@@]1(C)CCC(/C(C)=C/C=C/C(C)(C)O)C[C@@H]1C(=C)C (stereo not given in full) | . | . | . | 2.2 | 4 | 0.4 | -8 | 5.0
O=S(=O)(c1ccc(Cl)cc1)c1cc(O)ccc1O | -2.9 | 11 | -5 | 0.2 | 6 | -0.7 | -8 | 1.1
Cc1cccc(OCc2nnc(SCC(=O)Nc3cccc(C(=O)N4CCOCC4)c3)o2)c1C | -0.3 | -14 | -1 | -0.4 | 0 | . | -1 | 4.0
Cc1cc(OCCCC(=O)Nc2nnc(C3CC3)s2)ccc1Cl | . | . | . | -0.9 | 6 | 5.6 | -3 | 2.5
CC(C)Oc1ccc(Cn2c(=O)sc3ccccc32)cc1 | ? | -41 | 16 | -0.8 | 30 | 2.8 | -1 | 4.7
CC(c1ccccc1)N1C(=O)c2cccnc2C1=O (stereo not given) | 2.4 | 1 | -5 | 1.1 | 1 | -2.3 | . | 3.9
CCc1noc(C)c1C(=O)Nc1cccc(S(=O)(=O)N(C)c2ccccc2)c1 | 2.9 | 0 | -5 | 0.1 | -4 | 0.0 | 5 | 4.2
O=C(CNC1=NCCC1)c1ccc(Cl)cc1 | -4.5 | 24 | -2 | 0.0 | -2 | 0.4 | . | 2.9
COc1cc(/C=C(/C#N)C(=O)NCCc2c[nH]c3ccccc23)ccc1OCc1ccccc1F | 1.0 | 3 | 16 | 9.4* | 3 | -2.8 | 37 | -40
CCCCC(=O)Nc1cc(N(C)C)nc2ccccc12 | 3.8 | -1 | 8 | 0.5 | -9 | 4.5 | -3 | -103
CCOc1cc2[nH]c(=O)n(CCCCC(=O)N3CCCCCC3)c(=O)c2cc1OCC | -0.9 | ? | 9 | 0.3 | -4 | 1.5 | 6 | -16
O=C(CSc1ccc(-c2ccccn2)nn1)c1ccc(F)cc1 | 2.5 | -6 | 22 | -1.9 | -12 | 0.3 | -2 | -0.9
CCOC(=O)CN1CC23C=CC(O2)C(C(=O)NCc2ccc(F)cc2)C3C1=O (stereo not given) | 1.4 | -4 | -5 | 0.1 | 0 | 1.8 | 3 | -2.2
COc1ccc(C2NC(=O)c3ccccc3O2)cc1OC (stereo not given) | 1.3 | -3 | -5 | 0.4 | 5 | 1.3 | -12 | -2.4
CN(c1ccccc1)S(=O)(=O)c1ccc2c(c1)oc(=O)n2C | 1.6 | 6 | 1 | -1.6 | -7 | -5.4 | -3 | .
C=CCOc1ccc(/C=C2/C(=O)ON=C2C)cc1OC | -0.3 | 3 | -5 | -0.1 | 12 | 4.0 | . | -0.2
O=C(NNC(=O)C1CC1c1ccccc1)c1cccc([N+](=O)[O-])c1 (stereo not given) | -0.2 | 0 | -5 | 1.1 | -9 | -0.5 | 0 | -0.9
Cc1cc(C)cc(N(CCC#N)C(=O)COC(=O)C2CCN(S(=O)(=O)c3ccc(C)c(C)c3)CC2)c1 | 1.0 | -3 | 11 | 0.0 | 4 | -0.7 | -3 | 3.8
COc1ccc(CCn2c(C3CCCCC3)nc3c(c(=O)c4ccccc4n3C)c2=O)cc1OC | 4.2 | 4 | . | 0.5 | -25 | -0.7 | 7 | 2.7
CC(=O)NC12CC3CC(C1)CC(C(=O)N1CCN(S(=O)(=O)c4ccccc4[N+](=O)[O-])CC1)(C3)C2 | . | . | . | 0.3 | 20 | -0.3 | 2 | -1.1
COc1ccccc1OCC(O)Cn1nc(C)cc1C (stereo not given) | -0.5 | ? | -7 | 1.5 | -4 | 1.4 | 1 | 4.1
Cc1ccc(Nc2nnc(SC(C)C(=O)NCC3CCCO3)s2)cc1C (stereo not given) | -2.0 | -11 | 1 | 2.4 | -5 | 0.3 | -9 | 4.9
O=C(CSc1ccsc1[N+](=O)[O-])N1CCN(c2ccc(Cl)cc2)CC1 | -1.6 | -4 | 10 | -0.5 | -17 | -1.5 | -5 | -19
Cc1ccc(C(=O)Nc2sc(C(=O)N(C)C)c(C)c2C#N)cc1 | -1.5 | 9 | -11 | -0.1 | -3 | 1.7 | -4 | 7.5
COc1ccc(NC(=O)CSc2nnc(-c3cccs3)n2N)c(OC)c1 | -0.5 | 3 | -13 | 0.8 | -8 | -0.6 | 2 | 1.1
O=C(COC(=O)/C=C/c1cccc(Cl)c1)Nc1ccc(N2CCOCC2)cc1 | . | . | . | -0.5 | -2 | -3.2 | -6 | 1.0
O=C(Nc1cccnc1)c1ccc(S(=O)(=O)c2ccccc2)cc1 | -2.6 | ? | -8 | -2.5 | 3 | 4.3 | 4 | -0.9
O=C1CCC(=O)N1CN(C(=O)c1ccco1)c1ccc(Cl)c(Cl)c1 | -4.5 | 4 | -11 | -0.1 | -7 | -5.5 | -4 | 0.9
CCOc1cc(/C=C2\SC(=S)N(Nc3ccccc3)C2=O)ccc1O | -6.2 | -2 | -12 | -0.9 | -58 | 0.8 | 17 | 3.9
CCn1cnnc1SCC(=O)NCC1COc2ccccc2O1 (stereo not given) | . | . | . | 0.5 | -4 | i | 1 | 1.0
COc1ccc(-c2cc(C(F)(F)F)nc(SCCC(=O)Nc3cc(C)on3)n2)cc1 | 7.3 | -2 | -4 | -0.4 | -1 | 1.9 | -4 | -5.1
N#CCCn1ncn(-c2ccccc2)c1=S | 1.7 | 3 | -15 | 0.4 | 3 | 1.4 | -3 | 0.0
COc1ccccc1C(CNC(=O)CN(C)S(=O)(=O)c1ccc(C)cc1)N1CCCC1 (stereo not given) | . | . | . | -0.1 | -2 | 0.3 | 2 | 3.0
O=C(c1c(F)cccc1F)N1CCCC(c2nc(-c3ccc(F)cc3)no2)C1 (stereo not given) | -1.2 | 3 | -18 | 1.2 | 6 | -3.7 | 1 | 3.7
Cn1cc(/C=N/NC(=O)c2cccc([N+](=O)[O-])c2)c2ccccc21 | -0.4 | 3 | 7 | 0.1 | 18 | 0.6 | 3 | .
Cn1ccc(C(=O)OCC(=O)Nc2cccc3ccccc23)n1 | -3.5 | -8 | -3 | 0.3 | 0 | 0.4 | 0 | 1.0
Oc1ccc(-c2c(C3=CCCCC3)sc3ccccc23)cc1 | 2.8 | -9 | 14 | 1.2 | 0 | 4.7 | 3 | 4.7
CCCCn1c(N)c(N(CC)C(=O)c2cccc(S(=O)(=O)N3CCN(C)CC3)c2)c(=O)[nH]c1=O | -3.8 | -6 | -2 | -0.2 | 15 | -0.6 | -3 | 1.7
Cc1cc(C)c(C)c(S(=O)(=O)NCCN2CCOCC2)c1C | -3.4 | -2 | 4 | 0.1 | 3 | -1.9 | . | 1.7
Cc1cc(C)nc(SCC(=O)Nc2ncc(Cc3cccc(Cl)c3Cl)s2)n1 | 0.8 | 8 | 28 | 1.7 | -24 | -2.2 | 5 | 3.7
CSc1ncccc1C(=O)OCC(=O)C(C)(C)C | -2.7 | 26 | -2 | -0.3 | 2 | 10 | -7 | 0.9
Cc1ccc(S(=O)(=O)N2CCC(=O)N(C(COCc3ccccc3)Cc3ccccc3)CC2)cc1 (stereo not given) | 3.9 | -5 | -9 | -0.2 | -5 | 0.2 | 10 | 3.7
Cc1cc(C(=O)NN=C2CCCCC2)c2ccccc2n1 | . | . | . | -0.5 | 10 | 9.0 | 0 | -1.2
COC(=O)c1sc(NC(=O)c2cc3c(s2)CCCC3)nc1C | 1.7 | -8 | -14 | -5.8 | -2 | -0.8 | 13 | -9.6
COc1ccc2oc(=O)c(-c3csc(Nc4ccc(O)cc4)n3)cc2c1 | -1.6 | -6 | -5 | -0.6 | 19 | -2.2 | -6 | 1.1
COc1ccc(/C(C)=N/Nc2nc(C)cc(-c3ccccc3)n2)cc1 | -5.7 | -17 | 42 | 0.4 | -1 | -0.7 | 83* | .
CN(Cc1ccc(F)cc1)C(=O)c1cccc(OCc2ccccc2)c1 | 0.2 | -11 | 14 | 0.3 | -7 | -5.7 | -3 | 4.7
CC(C)(C)c1ccc(S(=O)(=O)Nc2ccc(C(=O)N3CCCC3)cc2)cc1 | ? | -18 | 10 | 0.6 | 6 | 2.7 | 9 | 1.2
CCCCn1c(SCC(=O)Nc2ccccc2C(F)(F)F)nc2ccsc2c1=O | -0.6 | -9 | -3 | -0.7 | -19 | 8.0 | -6 | 3.2
COc1ccc(C(=O)Nc2ccnn2C2CCN(C(C)CSC)CC2)cc1 (stereo not given) | 7.5 | -4 | 30 | -1.8 | 6 | 2.6 | -6 | -2.4
COc1ccc(-c2cc(C(=O)Nc3cccnc3Cl)no2)cc1OC | 0.5 | -21 | -2 | -0.8 | 6 | -1.8 | -2 | -29
Cc1cccc(N2CCN(C(=S)NCCc3ccccc3)CC2)c1C | 3.8 | 6 | -17 | 0.7 | 3 | 3.8 | -11 | 2.0

Only UCH37 inh and Beta cell apopt, for some of the entries so far:
| Compound | UCH37 inh | Beta cell apopt |
| --- | --- | --- |
| CC(C)(C)c1ccc(S(=O)(=O)Nc2ccc(C(=O)N3CCCC3)cc2)cc1 | 1.2 | 9 |
| CCCCn1c(SCC(=O)Nc2ccccc2C(F)(F)F)nc2ccsc2c1=O | 3.2 | -6 |

Six of the entries above in order of the LANA-H2A inh value, ascending.
smiles | LANA-H2A inh
Cc1cc(C)nc(SCC(=O)Nc2ncc(Cc3cccc(Cl)c3Cl)s2)n1 | -2.2
COC(=O)c1sc(NC(=O)c2cc3c(s2)CCCC3)nc1C | -0.8
CCCCn1c(N)c(N(CC)C(=O)c2cccc(S(=O)(=O)N3CCN(C)CC3)c2)c(=O)[nH]c1=O | -0.6
CC(C)(C)c1ccc(S(=O)(=O)Nc2ccc(C(=O)N3CCCC3)cc2)cc1 | 2.7
CCCCn1c(SCC(=O)Nc2ccccc2C(F)(F)F)nc2ccsc2c1=O | 8.0
CSc1ncccc1C(=O)OCC(=O)C(C)(C)C | 10
